GIV-Gai inh = blocks GIV peptide binding to rat Galpha-i3 | 210,000 tested, 0.42% active | percent of control (FP), % (concentration not given with the values) | Galpha-i3/FITC-GIV peptide fluorescence polarization, 90 min; hits give low values; scaled: aluminum fluoride 0%, vehicle 100% | P08753;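 active = replicate mean at 85% of control or lower, very high polarization wells dropped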;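 note: wells of about 15 µL received 100 nL stock; the first replicate is given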
Target sequence (P08753 whole entry, looked up): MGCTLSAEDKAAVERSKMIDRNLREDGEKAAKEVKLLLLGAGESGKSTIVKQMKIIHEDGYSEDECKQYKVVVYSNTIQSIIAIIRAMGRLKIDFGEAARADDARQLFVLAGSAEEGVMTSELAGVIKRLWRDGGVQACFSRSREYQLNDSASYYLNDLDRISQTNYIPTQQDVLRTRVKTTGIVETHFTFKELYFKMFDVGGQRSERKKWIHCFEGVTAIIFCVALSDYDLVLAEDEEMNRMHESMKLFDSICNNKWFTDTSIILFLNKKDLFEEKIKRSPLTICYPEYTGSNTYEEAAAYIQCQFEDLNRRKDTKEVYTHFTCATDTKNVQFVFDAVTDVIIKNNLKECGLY
HCMV NEC inh = inhibitors of HCMV UL50-UL53 nuclear egress complex interaction | AID 1918969 | 190,000 tested, 0.15% active | HTRF UL50-UL53 interaction, normalized percent inhibition | inhibition, % (concentration not given with the values);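 active = both replicates at 50% or more, plus weaker picks with an unusually low signal ratio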;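 note: stock transfer was 100 nL into about 20 µL; 0% = negative control wells and 100% = wells with untagged competitor protein; inactives centre near -12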
Sa growth inh = inhibitors of Staphylococcus aureus growth at 42 °C. AID 720641. S. aureus RN4220 growth, OD600, 20 h; hits give low values. 170,000 tested, 0.53% active. relative growth, % (concentration not given with the values);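 active = growth at 42 °C up to 50% and 20 or more points under that at 30 °C, or under 10% at both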;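 note: 300 nL library stock went into each well; scaled to the means of positive and negative controls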
Sa growth inh second temp = recorded beside Sa growth inh, whose call it bears; relative growth, %; measured here: growth at 30 °C;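 optical density after 20 h as mean of two plates; 100% = untreated growth and lower means inhibition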
* = called active by the depositor; / = not tested or not shown; & = joins results of further samples. Rows were taken by chance; overall some 0.83% were active at least once.

SMILES | GIV-Gai inh | HCMV NEC inh | Sa growth inh | Sa growth inh second temp
O=C(c1ccc(F)cc1F)C1CCN(C(=O)c2cccs2)CC1 | 102 | 1 | 107 | 108
NC(=O)c1c(/N=C/c2cc(Br)ccc2O)sc2c1CCCC2 | 98 | -2 | 105 | 86
O=c1[nH]c(SC/C=C/c2ccccc2)nc2sc3c(c12)CCC3 | 101 | / | 112 | 85
Cc1sc(-c2ccno2)cc1S(=O)(=O)N1CCCCC1 | 100 | -15 | / | /
Cc1cccc2nc(CSc3nc4cc([N+](=O)[O-])ccc4o3)c(Br)n12 | 110 | 10 | / | /
Cc1c(C)c(C)c(CN2CCCC2)c(C)c1C | 100 | -23 | 93 | 89
Nc1nonc1-c1nc2ccccc2n1Cc1cccc(Cl)c1 | 111 | -24 | 98 | 94
Cc1sc2c(c1C)c(=O)nc1n2Cc2ccccc2-1 | / | -5 | 101 | 94
S=c1[nH]c(=S)c2cnn(-c3ccccc3)c2[nH]1 | 105 | -10 | 80 | 78
O=C(Nc1ccccc1)c1ccc2c(c1)OCCCO2 | 105&112 | 12 | 114 | 94
Cc1c(-c2ccccc2)nnn1-c1cccc(Cl)c1C#N | 99 | -1 | 96 | 96
FC(F)(F)c1cccc(OCCNc2nc3ccccc3c3nc(-c4cccnc4)nn23)c1 | 104 | / | 94 | 95
Cc1cc(C)c(Cn2cccc2CNC(=O)NCC2CCCO2)c(C)c1 (stereo not given) | 107 | -27 | / | /
Cc1nnc(N2CCCC(C(=O)NCCc3ccccc3)C2)c2nn(-c3ccccc3)c(C)c12 (stereo not given) | 102 | / | 85 | 91
CCOc1ccc(NC(=O)NC(CC)Cn2nnc3ccccc3c2=O)cc1 (stereo not given) | 95 | 21 | 97 | 92
CC(Sc1nnc(-c2c[nH]c3ccccc23)n1C1CC1)C(=O)N(C)C1(C#N)CCCCC1 (stereo not given) | / | 12 | 112 | 107
O=C(C(NS(=O)(=O)c1cccc2nsnc12)c1ccccc1)N1CCc2ccccc21 (stereo not given) | 105 | / | 110 | 90
CSC1=C(C#N)C(c2ccco2)C(C(=O)Nc2ccccc2C)=C(C)N1 (stereo not given) | 106 | 10 | 109 | 90
COC(=O)C1=C(C)NC(=O)/C1=C\c1ccc(C(=O)OC)cc1 | / | 0 | 99 | 77
Cc1ccc(-c2nnc(SCCC(=O)Nc3ccccc3)n2C)cc1 | 105 | -18 | 102 | 105
Cc1cc(NC2CCCCC2)nc(-c2ccccc2O)n1 | / | -25 | 48 | 59
CCc1ccc(CN(Cc2ccco2)C(=O)c2ccc(OC)cc2)cc1 | 103 | -27 | 87 | 64
Cn1c(C(=O)NCCC2=CCCCC2)cc2oc3ccccc3c21 | 103 | 5 | 98 | 96
C=CCn1c(COc2cccc(C)c2)nnc1SCC(=O)NC(C)(C#N)C(C)C (stereo not given) | / | -17 | 95 | 90
Cc1nc2nc(C(F)(F)F)[nH]n2c(=O)c1Cc1ccccc1 | 100&103 | -2 | 105&79 | 90&80

Three entries from above, ordered by molecular weight, smallest number first.
SMILES | GIV-Gai inh | HCMV NEC inh | Sa growth inh | Sa growth inh second temp
S=c1[nH]c(=S)c2cnn(-c3ccccc3)c2[nH]1 | 105 | -10 | 80 | 78
Cc1sc2c(c1C)c(=O)nc1n2Cc2ccccc2-1 | / | -5 | 101 | 94
Cc1cc(NC2CCCCC2)nc(-c2ccccc2O)n1 | / | -25 | 48 | 59

An excerpt from above in order of the GIV-Gai inh value, descending.
structure	GIV-Gai inh	Sa growth inh	Sa growth inh second temp
Cc1ccc(-c2nnc(SCCC(=O)Nc3ccccc3)n2C)cc1	105	102	105
CCc1ccc(CN(Cc2ccco2)C(=O)c2ccc(OC)cc2)cc1	103	87	64
O=C(c1ccc(F)cc1F)C1CCN(C(=O)c2cccs2)CC1	102	107	108
Cc1c(C)c(C)c(CN2CCCC2)c(C)c1C	100	93	89
Cc1c(-c2ccccc2)nnn1-c1cccc(Cl)c1C#N	99	96	96
CCOc1ccc(NC(=O)NC(CC)Cn2nnc3ccccc3c2=O)cc1 (stereo not given)	95	97	92

Later entries
SMILES | GIV-Gai inh | HCMV NEC inh | Sa growth inh | Sa growth inh second temp
CCOC(=O)C1=C(N)Oc2cc(C)oc(=O)c2C1c1ccccc1F (stereo not given) | 104 | -19 | 96 | 74
O=C(NCc1ccccn1)c1nc[nH]c1C(=O)NCc1cccnc1 | 110 | 3 | / | /
NC(N)=NS(=O)(=O)c1ccc(NC(=O)c2ccco2)cc1 | 101 | / | 103 | 87
Cc1ccc(-c2nn(-c3ccccc3)c3[nH]c(=O)c(CNCCN4CCOCC4)cc23)cc1 | 104 | -5 | 121 | 84
CCNc1nc(N2CCCC2)nc(-n2cnc(SC)n2)n1 | 99 | -20 | / | /
CC(C)C(=O)Nc1cccc(C(=O)NCc2ccc3c(c2)OCO3)c1 | 101 | 2 | 112 | 93
CCNC(=S)NCCc1ccncc1 | 95 | -2 | 79 | 101
Clc1ccc(-c2nnsc2Cl)cc1 | 101 | -16 | / | /
CN(C)CCNc1cc(-c2cccs2)nc2ccccc12 | 102 | -4 | 90 | 48
CCc1ccc(Nc2nnc(SCC(=O)NC(=O)c3cccn3C)s2)cc1 | / | -30 | 108 | 89
CN=C(Nc1cc(C)nn1-c1ccccc1)c1cccs1 | / | -28 | 111 | 85
O=c1cc(O)c2sc3nc(-c4cccs4)cc(C(F)(F)F)c3c2[nH]1 | / | -100 | 90 | 82
CC(C)CC(=O)Nc1ccc(NC(=O)CC(C)C)cc1 | 98 | -20 | 101 | 84
S=c1[nH][nH]nc1-c1cccc(Cl)c1 | / | -4 | 54 | 54
O=C(C1CC1)N1CC(OCc2ccc(Cl)cc2)C1 | 101 | -28 | / | /
O=S(=O)(c1ccccc1)c1nc(-c2ccccc2)oc1N1CCN(c2ccccc2)CC1 | 104 | 1 | / | /
OCCN(Cc1ccccc1)Cc1ccc(C(F)(F)F)cc1 | 99 | -13 | 88 | 94
Cc1ccc(-c2noc(-c3ccc(N4CCOCC4)c([N+](=O)[O-])c3)n2)cc1 | 101 | -3 | 103 | 97
Cc1ccc[n+](Cc2ccccc2)c1 | / | -4 | 98 | 94
CCOC(=O)c1cccc(Nc2ccc3cc(S(=O)(=O)N4CCCCC4)ccc3n2)c1 | 104&104 | 2 | 92 | 89
CCOc1ccc(NS(=O)(=O)c2ccc3c(c2)CCCN3C(=O)C2CCC2)cc1 | 106 | / | 76 | 81
CCc1ccc(NC(=O)CN(C2=NC3CS(=O)(=O)CC3S2)c2ccc(CC)cc2)cc1 (stereo not given) | 104 | / | 103 | 95
COC(=O)C1=C(CN2CCCCC2)NC(=O)NC1c1ccccc1Cl (stereo not given) | 104 | -14 | 108 | 80
COc1cc(/C=C/C(=O)/C=C/c2ccc(N(C)C)cc2)cc(OC)c1OC | -64* | / | 76 | 82
CCc1ccc2occ(CC(=O)Nc3sc4c(c3C(=O)OC)CCCC4)c2c1 | 105 | / | 91 | 82

(listing goes on)
SMILES | GIV-Gai inh | HCMV NEC inh | Sa growth inh | Sa growth inh second temp
Cc1ccc2oc(-c3cc(NC(=O)c4oc5ccccc5c4C)ccc3Cl)nc2c1 | 106 | -58 | 96 | 87
Cc1ccc(SC(C)C(=O)NC(C)(C)C)cc1 (stereo not given) | 103 | -12 | 130 | 99
COC(=O)c1cccc(NC(N)=S)c1 | / | 14 | 62 | 92
CCC(C(=O)N1CCc2ccccc21)n1nc(-c2cc(C)ccc2C)ccc1=O (stereo not given) | 104 | 3 | / | /
Cc1nc(-c2ccc(-n3cc(C(=O)NCc4ccccc4Cl)c(C)n3)cc2)no1 | 105 | -30 | / | /
CS(=O)(=O)NCCc1csc(-c2ccc(Cl)cc2)n1 | 104 | -52 | / | /
CCOc1ccc(/C=C2\NC(=S)NC2=O)cc1OC | / | -85 | 80 | 78
NNC(=S)NCc1ccccc1 | / | -29 | 92 | 82
FC(F)(F)c1cccc(NCn2c(=S)oc3ccc(Cl)cc32)c1 | / | -25 | 95 | 77
O=C(NCCCn1ccnc1)c1cc(Cl)cc(Cl)c1 | / | -1 | 83 | 98
Cc1cccc(NC(=S)N(CCCNC2=CC(=O)CC(C)(C)C2)C2CCCCC2)c1 | 98 | / | 117 | 72
CCc1nnc(NC(=O)CCCSc2ccccc2)s1 | / | -12 | 98 | 97
COc1ccc(NC(=O)CC(c2ccc(F)cc2)N2Cc3ccccc3C2=O)cc1OC (stereo not given) | 105 | 0 | / | /
COc1ccc(N2CC(NC(=O)NCc3ccc4c(c3)OCO4)CC2=O)cc1OC (stereo not given) | 100 | 13 | 107 | 99
O=S(=O)(c1cccc(Cl)c1)N1CCC2(CC1)Nc1cc(F)ccc1-n1cccc12 | 108 | 1 | / | /
Cc1oc(-c2ccccc2)nc1C(=O)O | 103 | -11 | 108 | 80
CCN(CC)c1ccc2cc(-c3csc(C)n3)c(=O)oc2c1 | / | -42 | 88 | 85
CCc1ccc(-n2c(=O)c3c4c(sc3n(CC(=O)c3ccc(F)cc3)c2=O)CCC4)cc1 | 103 | 2 | 99 | 97
CCOC(=O)C1CCN(Cc2cc(=O)n3c(-c4ccccc4)csc3n2)CC1 | / | -27 | 86 | 90
Cc1cc(C)nc(C#N)n1 | 108 | -2 | 99 | 93
COC(=O)c1cc2c(=O)n3ccccc3nc2n(CCN2CCOCC2)c1=N | 103 | -89 | 103 | 93
O=C(NCCc1ccccc1)c1cc(-c2ccccc2)nc2n[nH]c(-c3ccccc3)c12 | 103 | 4 | 93 | 72
CC12CCOC1N(c1ccccc1)c1ccccc12 (stereo not given) | 99 | -19 | 100 | 89
COc1ccc(-c2nc(SCC(=O)N3CCN(c4ccc(F)cc4)CC3)n[nH]2)cc1 | 100 | / | 83 | 92
COc1ccc(N2CCN(C(=O)c3oc4ccc(Br)cc4c3C)CC2)cc1 | / | -30 | 91 | 85

The listing continues.
SMILES | GIV-Gai inh | HCMV NEC inh | Sa growth inh | Sa growth inh second temp
NC(=O)C1CCN(C(=O)Cn2c(-c3cccs3)cc3ccccc32)CC1 | 107 | / | 120 | 92
CCOC(=O)c1ccc(CN(Cc2ccc(OC)cc2)S(=O)(=O)c2cccc(C(F)(F)F)c2)cc1 | 101 | / | 90 | 98
CCCCNC(=O)CN1C(=O)CC(C)Sc2ccc(S(=O)(=O)N3CCCCC3)cc21 (stereo not given) | 102 | 2 | / | /
CCCNC(=O)CN1C(=O)CSc2ccc(S(=O)(=O)N(CC)CC)cc21 | 103 | -13 | / | /
COc1ccc(OC2CCN(S(=O)(=O)c3ccc(OC)cc3)CC2)cc1 | 100 | 13 | 110 | 103
COC(=O)[C@H](C)NC(=O)Cc1cccc2ccccc12 | / | -24 | 94 | 90
O=C(Nc1ccc2[nH]c(=O)[nH]c2c1)c1c(F)c(F)c(F)c(F)c1F | 100 | -13 | 105 | 88
O=C(CN(c1ccc(F)cc1)S(=O)(=O)c1ccccc1)Nc1ccc(S(=O)(=O)N2CCOCC2)cc1 | 99 | -15 | / | /
Cn1cc(S(=O)(=O)N2CCCC2)cc1C(=O)N1CCCc2ccccc21 | 95 | / | 97 | 79
O=C1CCS(=O)(=O)N1c1ccc(S(=O)(=O)Nc2ccccc2)cc1 | 110 | -7 | / | /
Cc1cc(C)cc(NC(=O)C2CC(=O)N(c3ccccc3)C2)c1 (stereo not given) | 105 | -24 | 101 | 80
Cc1c(C(=O)Nc2ccc(F)cc2)cnn1-c1ccc(F)cc1 | 99 | -34 | 95 | 90
O=C(CC(c1ccccc1)C1CCCCC1=O)c1ccco1 (stereo not given) | 103 | -3 | 94 | 90
COc1ccc(OC)c(NC(=O)CCn2cccn2)c1 | 97 | / | 94 | 83
Cc1ccc2oc(-c3ccccc3C(=O)O)cc(=O)c2c1 | 98 | -4 | 103 | 84
CC1=C(C(=O)OC(C)C)C2(O)C(=O)c3ccccc3C2(O)N1 (stereo not given) | 99 | 61* | 74 | 73
CC(C)(C)C1CCc2c(sc(N)c2C(N)=O)C1 (stereo not given) | / | -18 | 86 | 81
O=C(COC(=O)c1cc(Br)ccc1O)c1ccc(F)cc1 | / | -3 | 109 | 92
CCCCN(C)CCCNC(=O)Cn1ncc2c3ccccc3n(Cc3ccccc3F)c2c1=O | 102 | -6 | 111 | 89
CCOC(=O)Cc1nnc2c3ccccc3n(C)c2n1 | 105 | -30 | 96 | 77
CCc1ccc2[nH]cc(S(=O)(=O)c3ccccc3)c(=O)c2c1 | 107 | / | 88 | 79
CCc1ccc(C2=CC(c3c(F)cccc3Cl)n3c(nc4ccccc43)N2)cc1 (stereo not given) | 122 | / | 107 | 89
COc1ccc(-c2csc(-c3nc(-c4ccc5c(c4)OCO5)cs3)n2)cc1F | 103 | -22 | / | /
CC(=O)OC1=CN(C(C)C)S(=O)(=O)c2ccccc21 | 100 | -16 | / | /
CCc1nnc2sc(-c3ccccc3N)nn12 | 108 | -8 | 89 | 95
CCCCNC(=O)C1(O)c2ccccc2NC(=O)N1c1ccccc1 (stereo not given) | 109 | -4 | 72 | 95
CCOC(=O)CNc1c(-c2ccc(OC)cc2)nc2ccc(Cl)cn12 | 105 | -72 | 99 | 80
CC(C)NC(=O)CSc1nnc2sc3ccccc3n12 | / | -26 | 91 | 89
Cc1c(Cl)cccc1NC(=O)CCOc1ccccc1 | 99 | 11 | 92 | 109
COc1ccc(-c2nn(C)c3sc(C(=O)NCCN(C)C)cc23)cc1OC | 107 | -20 | 99 | 80

Compounds shown so far that contain a nitro group on carbon (2):
SMILES | GIV-Gai inh | HCMV NEC inh | Sa growth inh | Sa growth inh second temp
Cc1cccc2nc(CSc3nc4cc([N+](=O)[O-])ccc4o3)c(Br)n12 | 110 | 10 | / | /
Cc1ccc(-c2noc(-c3ccc(N4CCOCC4)c([N+](=O)[O-])c3)n2)cc1 | 101 | -3 | 103 | 97
